Assay outcomes (PubChem BioAssay)
Sa growth 42C: S. aureus growth inhibition. relative growth, % (no concentration beside the values). actives 0.53% (n = 170,000). S. aureus RN4220 growth, OD600, 20 h, 42 °C; stronger effect = lower value;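 active = growth at 42 °C up to 50% and 20 or more points under that at 30 °C, or under 10% at both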;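 note: 300 nL library stock went into each well; scaled to the means of positive and negative controls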
GIV-Gai inh: GIV-Galpha-i interaction inhibition; AID 1224905; P08753; actives 0.42% (n = 210,000); Galpha-i3/FITC-GIV peptide fluorescence polarization, 90 min; stronger effect = lower value; scaled: aluminum fluoride 0%, vehicle 100%; percent of control (FP), % (test concentration not listed);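 active = replicate mean at 85% of control or lower, very high polarization wells dropped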;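 note: wells of about 15 µL received 100 nL stock; the first replicate is given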
Target sequence (P08753 whole entry, looked up): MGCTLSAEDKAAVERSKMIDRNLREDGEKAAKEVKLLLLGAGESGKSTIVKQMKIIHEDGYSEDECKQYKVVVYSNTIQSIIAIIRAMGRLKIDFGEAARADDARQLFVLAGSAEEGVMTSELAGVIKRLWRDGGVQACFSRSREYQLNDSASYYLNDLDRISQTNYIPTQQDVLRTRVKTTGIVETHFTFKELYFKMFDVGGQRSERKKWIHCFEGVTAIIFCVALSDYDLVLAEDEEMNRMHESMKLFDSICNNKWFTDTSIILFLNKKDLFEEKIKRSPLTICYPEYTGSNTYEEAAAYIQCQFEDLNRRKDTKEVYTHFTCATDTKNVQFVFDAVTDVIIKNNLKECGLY
HCMV NEC inh: disrupts HCMV UL50-UL53 complex binding; HTRF UL50-UL53 interaction, normalized percent inhibition; inhibition, % (test concentration not listed); actives 0.15% (n = 190,000); AID 1918969;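 active = both replicates at 50% or more, plus weaker picks with an unusually low signal ratio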;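 note: stock transfer was 100 nL into about 20 µL; 0% = negative control wells and 100% = wells with untagged competitor protein; inactives centre near -12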
Sa growth 42C second temp: recorded beside Sa growth 42C, whose call it bears; relative growth, %; measured here: growth at 30 °C;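 optical density after 20 h as mean of two plates; 100% = untreated growth and lower means inhibition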
* hit, by the source's call; & = joins results of further samples.

`CCOC(=O)c1c(C)n(-c2ccccc2)c2c1cc(OC(=O)Cc1ccccc1)c1ccccc12` gave GIV-Gai inh 105 and HCMV NEC inh -20.
Screening Cc1cc(C)c2c(N)c(C(N)=O)sc2n1 returned Sa growth 42C 104, GIV-Gai inh 112, HCMV NEC inh -20 and Sa growth 42C second temp 90.
CCn1c(CNC(=O)c2ccncc2)cc2ccccc21 was read as Sa growth 42C 79, GIV-Gai inh 99, HCMV NEC inh 13 and Sa growth 42C second temp 84.
Screening COc1ccc(N2C(=O)CCS2(=O)=O)cc1S(=O)(=O)Nc1ccccc1Br returned GIV-Gai inh 102 and HCMV NEC inh -16.
COc1cc2c(cc1OC)C(COc1ccc(C(C)C)cc1)N(C(=O)c1ccc(S(=O)(=O)N3CCCC3)cc1)CC2 (stereo unspecified) was read as Sa growth 42C 132, GIV-Gai inh 104 and Sa growth 42C second temp 88.
For CN(Cc1ccco1)C(=O)c1ccc2c(c1)CC(c1ccccc1)OC2=O (stereo unspecified) the results were Sa growth 42C 91, HCMV NEC inh -19 and Sa growth 42C second temp 79.
Screening Cc1cc(-c2nc(-c3ccc(C(C)(C)C)cc3)no2)no1 returned Sa growth 42C 83, GIV-Gai inh 104, HCMV NEC inh 0 and Sa growth 42C second temp 86.
CCC(Sc1nc(C)cc(=O)[nH]1)C(=O)Nc1ccc(Cl)cn1 (stereo unspecified) was read as Sa growth 42C 101, GIV-Gai inh 104 and Sa growth 42C second temp 81.
Screening COc1ccc(CCNC(=O)Cn2cc(S(=O)(=O)Cc3ccccc3F)c3ccccc32)cc1OC returned Sa growth 42C 106, GIV-Gai inh 102 and Sa growth 42C second temp 85.
O=C(NCCc1ccccc1)C1CCN(c2nc3ccccc3o2)CC1 was read as Sa growth 42C 106, GIV-Gai inh 98&106, HCMV NEC inh -30 and Sa growth 42C second temp 83.
CCNC(=O)C1CCN(c2nc3ccccc3nc2C(F)(F)F)CC1 was read as Sa growth 42C 112, GIV-Gai inh 106 and Sa growth 42C second temp 94.
For Cn1c(CSC2CN(C(c3ccccc3)c3ccccc3)C2)n[nH]c1=S the results were Sa growth 42C 114, GIV-Gai inh 105, HCMV NEC inh -19 and Sa growth 42C second temp 83.
Screening O=C(CSc1nc2ccccc2c(=O)n1NC(=O)c1ccccc1)NCc1ccccc1 returned Sa growth 42C 84, GIV-Gai inh 101 and Sa growth 42C second temp 88.
CCN(C(=O)CS(=O)(=O)c1cccc2nsnc12)c1ccc(C)c(C)c1 was read as Sa growth 42C 116, GIV-Gai inh 104, HCMV NEC inh -8 and Sa growth 42C second temp 94.
Screening CCOC(=O)c1ccc(NC(=O)CSc2nccn2-c2cc(C)cc(C)c2)cc1 returned Sa growth 42C 111, GIV-Gai inh 100 and Sa growth 42C second temp 88.
`COC(=O)c1c(-c2cccs2)csc1NC(=O)c1ccc(OC)c(OC)c1` gave Sa growth 42C 98, GIV-Gai inh 102, HCMV NEC inh -32 and Sa growth 42C second temp 83.
For COc1ccc(OC)c(CNC(=O)c2ccc(Sc3ccc(Cl)cc3)c(NC(C)=O)c2)c1 the results were Sa growth 42C 108, GIV-Gai inh 108 and Sa growth 42C second temp 91.
`COc1ccc(CNC(=O)c2cc(=O)[nH]c3ccc(S(=O)(=O)N4CCCC4)cc23)c(OC)c1` gave Sa growth 42C 107, GIV-Gai inh 103 and Sa growth 42C second temp 93.
`Cc1ccc(NC(=O)NC2CCN(C(=O)N3CCOCC3)CC2)cc1` gave Sa growth 42C 103, GIV-Gai inh 102, HCMV NEC inh -20 and Sa growth 42C second temp 87.
Screening CCOc1ccc(NC(=O)C2CCN(C(=O)c3ccccc3)CC2)cc1 returned Sa growth 42C 100, GIV-Gai inh 101 and Sa growth 42C second temp 73.
`CSc1sc(C(=O)NC(=O)Nc2ccc(Cl)cc2)c2c1-c1nocc1CC2` gave Sa growth 42C 89, GIV-Gai inh 108, HCMV NEC inh -68 and Sa growth 42C second temp 85.
`C=CCn1cc(/C=C2/NC(=O)N(c3ccccc3)C2=O)c2ccccc21` gave Sa growth 42C 113, GIV-Gai inh 100 and Sa growth 42C second temp 81.
For NC(=O)C1CCN(CC2CC=CCC2)CC1 (stereo unspecified) the results were Sa growth 42C 104, HCMV NEC inh -1 and Sa growth 42C second temp 89.
`Cc1nnsc1C(=O)N1CCCN(c2nc3ccc(Cl)cc3s2)CC1` gave Sa growth 42C 119, GIV-Gai inh 102, HCMV NEC inh -9 and Sa growth 42C second temp 87.
`Nc1nc2c(c(=O)[nH]1)C(c1ccccc1F)CC(=O)N2` (stereo unspecified) gave GIV-Gai inh 108 and HCMV NEC inh 7.
For CCOC(=O)c1c(C)n(CCNC(C)=O)c2cc(Br)c(OC)cc12 the results were Sa growth 42C 104, GIV-Gai inh 109, HCMV NEC inh 14 and Sa growth 42C second temp 124.
COc1ccc(C2CC(=O)N(C)c3ccccc3S2)cc1 (stereo unspecified) was read as Sa growth 42C 96, GIV-Gai inh 103 and Sa growth 42C second temp 78.
Cc1ccc(NC(=O)Cn2c(CCC(=O)O)ccc2-c2ccc(Cl)cc2)cc1 was read as Sa growth 42C 103, GIV-Gai inh 104, HCMV NEC inh -10 and Sa growth 42C second temp 74.
For Oc1ccc(Nc2ncnc3ccccc23)cc1 the results were Sa growth 42C 118, GIV-Gai inh 99, HCMV NEC inh -27 and Sa growth 42C second temp 72.
For COc1ccccc1NC(=O)Cn1cnc2ccc(S(=O)(=O)N3CCC(C)CC3)cc2c1=O the results were Sa growth 42C 101, GIV-Gai inh 104, HCMV NEC inh 0 and Sa growth 42C second temp 89.
Screening Cc1cc(C)c2c(n1)nn1c(C)c(CCC(=O)NCCc3ccccc3)c(C)nc21 returned Sa growth 42C 111, GIV-Gai inh 97 and Sa growth 42C second temp 87.
For CCC1CCCCN1C(=O)CSc1nc2c(c(=O)n1Cc1ccccc1)SC(C)C2 (stereo unspecified) the results were Sa growth 42C 93, GIV-Gai inh 98 and Sa growth 42C second temp 81.
CN(C)c1ccc(CN(CC2CCCO2)C(=O)c2ccc(Br)cc2)cc1 (stereo unspecified) was read as Sa growth 42C 106, GIV-Gai inh 103&113, HCMV NEC inh -19&0 and Sa growth 42C second temp 85.
Screening CCn1nc(C)c2c(-c3ccccc3)cc(=O)n(C(C)C(=O)NCc3cccc(OC)c3)c21 (stereo unspecified) returned Sa growth 42C 95, GIV-Gai inh 99 and Sa growth 42C second temp 89.
For Cc1cc(=O)nc2c3ccccc3n(CC(=O)N3CCc4ccccc43)n12 the results were Sa growth 42C 109, GIV-Gai inh 110, HCMV NEC inh 8 and Sa growth 42C second temp 102.
`CCN1C(=O)C(O)(CC(=O)c2cc(C)ccc2C)c2ccccc21` (stereo unspecified) gave Sa growth 42C 101, GIV-Gai inh 109, HCMV NEC inh 12 and Sa growth 42C second temp 95.
For CCC(C)NC(=O)c1c[nH]c2ccc(S(=O)(=O)N(C)c3cc(C)ccc3C)cc2c1=O (stereo unspecified) the results were Sa growth 42C 106, GIV-Gai inh 102 and Sa growth 42C second temp 91.
Screening CC(C)CN(CC(C)C)Cn1nc(-c2ccc3c(c2)OCO3)oc1=S returned Sa growth 42C 70, HCMV NEC inh -10 and Sa growth 42C second temp 87.
Screening COc1ccc(C(=O)NCC(=O)N2CCN(c3ccc(F)cc3)CC2)cc1 returned Sa growth 42C 111, HCMV NEC inh -28 and Sa growth 42C second temp 83.
`Cc1ccc(S(=O)(=O)N2CCC(c3nc4cc(C(=O)NCc5ccco5)ccc4n3C3CCCCC3)CC2)cc1` gave Sa growth 42C 84, GIV-Gai inh 98, HCMV NEC inh -26 and Sa growth 42C second temp 85.
`O=C(CSCc1ccccc1Cl)NC1CCCC1` gave Sa growth 42C 114, GIV-Gai inh 105, HCMV NEC inh -15 and Sa growth 42C second temp 88.
`Cc1cc(C)nc(NC(=O)CCn2nnc3cc(S(=O)(=O)N4CCCC4)ccc32)n1` gave GIV-Gai inh 108 and HCMV NEC inh -12.
Screening Cc1ccc2[nH]c(CSc3nnc(C)s3)cc(=O)c2c1 returned Sa growth 42C 95, GIV-Gai inh 103 and Sa growth 42C second temp 74.
For CCOC(=O)c1[nH]c(C)c(S(=O)(=O)NC(C)(C)C)c1C the results were GIV-Gai inh 109 and HCMV NEC inh -6.
`COc1ccc(OC)c(C2C3=C(CC(c4ccccc4O)CC3=O)Nc3onc(C)c32)c1` (stereo unspecified) gave GIV-Gai inh 104 and HCMV NEC inh 25.
Screening COc1ccc2c(c1)CCc1sc(NC(=O)c3ccc(Br)cc3)nc1-2 returned Sa growth 42C 104, GIV-Gai inh 103 and Sa growth 42C second temp 90.
`Cc1ccccc1NC(=O)[C@H](CSCc1ccccc1)N1Cc2ccccc2C1=O` gave Sa growth 42C 102, GIV-Gai inh 102, HCMV NEC inh -27 and Sa growth 42C second temp 85.
`Cn1c(=O)c2c(-c3ccc(Br)cc3)n3c(c2n(C)c1=O)C(/C=C/c1ccccc1)OCC3` (stereo unspecified) gave GIV-Gai inh 102 and HCMV NEC inh 10.
For CCOc1ccccc1CNC(=O)C1CCN(C2=NS(=O)(=O)C(c3ccc(C)c(C)c3)=C2C)CC1 the results were Sa growth 42C 82, GIV-Gai inh 100 and Sa growth 42C second temp 87.
CC1(C)CC(NCc2ccncc2)CC(C)(C)N1 was read as Sa growth 42C 99, HCMV NEC inh -4 and Sa growth 42C second temp 80.
CCOc1ccc(NC(=O)Cn2c(CCC(=O)O)ccc2-c2ccc(C)cc2)cc1 was read as Sa growth 42C 98, GIV-Gai inh 98, HCMV NEC inh -32 and Sa growth 42C second temp 88.
For CC(C)[C@H](NC(=O)c1ccccc1)C(=O)Nc1ccc(N2CCOCC2)cc1 the results were Sa growth 42C 90, HCMV NEC inh -11 and Sa growth 42C second temp 101.
COc1ccc(Cn2c(CO)cnc2SCc2ccc(F)cc2)cc1 was read as Sa growth 42C 102, GIV-Gai inh 101 and Sa growth 42C second temp 90.
`Cc1cc(C)nc(/N=C(/NC(=O)C(C)(C)C)Nc2ccccc2)n1` gave Sa growth 42C 86, GIV-Gai inh 103, HCMV NEC inh -27 and Sa growth 42C second temp 83.
For CCCC(C)C(=O)Nc1cccc(Br)c1 (stereo unspecified) the results were Sa growth 42C 78, HCMV NEC inh -13 and Sa growth 42C second temp 82.
Screening COc1cccc(C2C(C(=O)Nc3ccc(C)cc3C)=C(C)Nc3c(C(=O)Nc4ccccc4)cnn32)c1 (stereo unspecified) returned Sa growth 42C 94, GIV-Gai inh 97 and Sa growth 42C second temp 103.
`COCCCNC1=C(C#N)C(=O)NC(c2cccs2)S1` (stereo unspecified) gave Sa growth 42C 90, GIV-Gai inh 100, HCMV NEC inh -31 and Sa growth 42C second temp 92.
Screening COC(=O)c1c(NC(=O)c2nn(-c3ccc(F)cc3)ccc2=O)sc2c1CCC2 returned GIV-Gai inh 104 and HCMV NEC inh -9.
`NC(=O)c1cc(OCC(F)(F)F)ccc1OCC(F)(F)F` gave Sa growth 42C 115, GIV-Gai inh 109, HCMV NEC inh -5 and Sa growth 42C second temp 93.
For CN(C)c1cccc(C(=O)OCC(=O)C23CC4CC(CC(C4)C2)C3)c1 the results were Sa growth 42C 83, HCMV NEC inh -21 and Sa growth 42C second temp 102.

Quoted at random: two compounds from above.
For CCCC(C)C(=O)Nc1cccc(Br)c1 (stereo unspecified) the results were Sa growth 42C 78, HCMV NEC inh -13 and Sa growth 42C second temp 82.
`O=C(CSCc1ccccc1Cl)NC1CCCC1` gave Sa growth 42C 114, GIV-Gai inh 105, HCMV NEC inh -15 and Sa growth 42C second temp 88.

The main list resumes, repeating the six entries before the break.
For CCCC(C)C(=O)Nc1cccc(Br)c1 (stereo unspecified) the results were Sa growth 42C 78, HCMV NEC inh -13 and Sa growth 42C second temp 82.
Screening COc1cccc(C2C(C(=O)Nc3ccc(C)cc3C)=C(C)Nc3c(C(=O)Nc4ccccc4)cnn32)c1 (stereo unspecified) returned Sa growth 42C 94, GIV-Gai inh 97 and Sa growth 42C second temp 103.
`COCCCNC1=C(C#N)C(=O)NC(c2cccs2)S1` (stereo unspecified) gave Sa growth 42C 90, GIV-Gai inh 100, HCMV NEC inh -31 and Sa growth 42C second temp 92.
Screening COC(=O)c1c(NC(=O)c2nn(-c3ccc(F)cc3)ccc2=O)sc2c1CCC2 returned GIV-Gai inh 104 and HCMV NEC inh -9.
`NC(=O)c1cc(OCC(F)(F)F)ccc1OCC(F)(F)F` gave Sa growth 42C 115, GIV-Gai inh 109, HCMV NEC inh -5 and Sa growth 42C second temp 93.
For CN(C)c1cccc(C(=O)OCC(=O)C23CC4CC(CC(C4)C2)C3)c1 the results were Sa growth 42C 83, HCMV NEC inh -21 and Sa growth 42C second temp 102.
Cc1cc(C)cc(-n2c(SCC(=O)N3CCCCCC3)nc3c([nH]c4ccccc43)c2=O)c1 was read as Sa growth 42C 105, GIV-Gai inh 108 and Sa growth 42C second temp 92.
Screening CCCc1nc2ccccc2n1CC(O)COc1ccccc1Cl (stereo unspecified) returned GIV-Gai inh 105 and HCMV NEC inh -2.
Screening CCC(=O)N(c1nnc(SCC(=O)N2CCCc3ccccc32)s1)C1CC1 returned Sa growth 42C 123, HCMV NEC inh -24 and Sa growth 42C second temp 94.
`O=C(Nc1ccnn1C1CCCC1)c1ccc(OC(F)F)cc1` gave Sa growth 42C 86, HCMV NEC inh -23 and Sa growth 42C second temp 91.
